Autofluor counter = counter-screen for toxin protease inhibitors: compound fluorescence | compound autofluorescence counterscreen, microsphere flow cytometry; hits give high values | fluorescence intensity (concentration not given with the values) | 360,000 compounds, 3.1% hits | AID 624483;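 active means at least 3 SD above the mean of all compounds, about 16000 in these data; inconclusive means too few beads counted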;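 further: 100 nL of 1 mM stock went into each well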
ugtP null kill = growth inhibition of ugtP-null S. aureus, primary screen, RN4220 ugtP deletion, OD600; growth inhibition, % (concentration not given with the values); 330,000 compounds, 0.54% hits; 16 h; some inactives read as strong as hits;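 active means z-score under -3 and OD600 up to 0.15 on both plates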;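 further: plate controls were untreated wells for no effect and antibiotic for full effect; wells of about 80 µL received 100 nL stock; the first replicate is given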
BJeLR lethal = MLPCN primary cell-based screen for lethality selective to Ras in HRASV12 cells; BJeLR (HRASV12) viability, CellTiter-Glo ATP luminescence, 48 h; reference of the scale not given here; inhibition, % (concentration not given with the values); 300,000 compounds, 0.17% hits; AID 1554, 2009;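 active means replicate mean above 50%; inconclusive means above 50% but judged a plate artefact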;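 further: 50 nL library stock added to about 25 µL; numbers are from one replicate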
PrP UTR inh = inhibition of PrP 5' UTR reporter expression; inhibition, % (concentration not given with the values); cell-based PrP 5' UTR mRNA reporter, plate reader; 340,000 compounds, 0.35% hits;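 active means every replicate at 50% or more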;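 further: 0 = median of the neutral control wells; tested in H4 reporter cells; numbers are from one replicate; inactives centre near -14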
Mtb hypoxia inh = PubChem AID 1159583 | fluorescence inhibition, % (no concentration beside the values) | M. tuberculosis hypoxia-regulated fluorescent reporter, fluorescence | 300,000 compounds, 0.1% hits;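 active means 35 to 45% if threefold the growth effect, above 45% if 1.5-fold the growth effect; inactive means the rest, general growth blockers included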;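 further: wells of about 50 µL received 100 nL stock; 0% = vehicle wells and 100% = reference inhibitor wells; whole bacteria with a GFP reporter of the hypoxia response; strong numbers were not always called active; many hits fall short of the cut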
Sa RN4220 lethal = growth inhibition of S. aureus RN4220, primary screen, OD600; 330,000 compounds, 0.33% hits; inhibition, % (concentration not given with the values); 16 h; AID 1259311, 2017;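 active means z-score of -3 or lower and OD600 up to 0.18 on both plates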;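 further: plate controls were untreated cells for no effect and reference antibiotic for full effect; stock transfer was 100 nL into about 80 µL; one replicate is shown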
Mtb hypoxia inh growth = second read-out of Mtb hypoxia inh, no call of its own (marks repeat the call); growth inhibition, %; measured here: M. tuberculosis growth (absorbance);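 0% = vehicle and 100% = reference antibiotic; read after six days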
An asterisk follows results filed as active; ? = inconclusive; · = not tested or not shown.

Compound,Autofluor counter,ugtP null kill,Sa RN4220 lethal,Mtb hypoxia inh growth,PrP UTR inh,BJeLR lethal,Mtb hypoxia inh
Cc1cccc(C)c1NC(=S)NC(=O)CCc1ccccc1,5612,4.4,-0.5,-4.4,-13.4,-10.3,4.2
CCc1ccccc1NC(=O)CN1CCN(C(=O)CN2C(=O)NC3(CCCCC3C)C2=O)CC1 (stereo not given),5557,0.6,0.1,-8.9,-29.7,·,2.1
CC(C)c1ccc(Cc2nnc(NCCCO)[nH]c2=O)cc1,5392,2.9,1.8,-6.4,-33.3,-10.6,1.5
CCCn1nc(NS(=O)(=O)c2ccc(F)cc2)c2cc3ccccc3nc21,6386,-11.8,2.7,15.0,-1.4,-4.2,-0.6
CC1CCOC(c2coc3ccccc3c2=O)O1 (stereo not given),10426,2.1,3.0,18.8,-50.3,-1.6,19.2
CCNC(=S)NS(=O)(=O)c1ccc(C)cc1,2508,4.1,4.7,-0.3,-21.2,10.0,-0.8
N#C/C(=C\c1ccc(C(=O)O)cc1)S(=O)(=O)c1cc(Br)ccc1Br,4643,2.9,9.0,8.5,-5.7,6.2,-3.1
O=C(COc1ccc(Br)cc1)Nc1ccc2oc(=O)ccc2c1,6169,1.6,4.9,-8.4,-18.7,4.5,8.5
CCC(C(=O)O)N1C(=O)/C(=C/c2cccn2C)SC1=S (stereo not given),2117,-4.3,10.1,0.4,-15.2,·,18.2
O=S(=O)(NC1CC1)c1ccccc1,3630,5.2,3.5,0.0,-18.8,1.4,7.5
O=C(/C=C/c1ccc(Cl)cc1Cl)NCc1ccco1,3671,1.2,-2.4,·,-62.0,0.3,·
CCCCNC(=O)O[C@@H]1C[C@@H]2CCN3C(=O)CCC[C@H]([C@H]1CC)[C@H]23,3588,·,·,·,-15.3,-4.9,·
Cc1cccc2cc(CN(Cc3cccs3)C(=S)NCc3ccco3)c(=O)[nH]c12,2037,-12.7,-1.5,2.2,-8.6,10.3,2.3
O=C(c1ccc(CN2CCOCC2)cc1)N1CCN(c2cccc(Cl)c2)CC1,4715,1.9,1.8,·,-16.0,-1.0,·
COc1ccc(C)cc1NC(=O)CSc1nnc(COc2ccc(C)cc2)n1Cc1ccco1,2968,-19.9,-6.5,·,-8.0,-2.6,·
C=CC1c2cc(C)ccc2N(S(=O)(=O)c2ccc(C)cc2)C(c2ccccc2)C1(C#N)C#N (stereo not given),·,4.2,8.0,-6.2,·,·,1.3
COc1ccc(C2CC(=O)C=C(c3ccc(C)cc3)C2)cc1OC (stereo not given),·,9.3,5.9,10.7,·,·,5.4
CCCCC1=CC2=C(c3ccco3)C(=O)C(C)(OC(=O)c3ccc(OC)cc3)C(=O)C2=CN1Cc1ccccc1 (stereo not given),4149,-0.9,5.8,3.1,-4.9,2.9,5.6
O=C(COC(=O)c1cc([N+](=O)[O-])ccc1NCc1ccccc1)NC1CCCCC1,2041,-13.0,15.9,-0.3,-6.2,-6.8,5.7
COc1cccc(/C=N/n2c(C3CCCCC3)n[nH]c2=S)c1O,4322,·,·,·,-12.1,4.7,·
CCOc1ccc(C2=C(C=C(C#N)C#N)C(c3ccccc3)c3ccccc3O2)cc1 (stereo not given),10662,14.3,-3.1,-2.1,-15.6,-7.5,-2.7
O=[N+]([O-])c1ccc2[nH]cc(S(=O)(=O)N3CCN(c4cccc(Cl)c4)CC3)c2c1,4729,90.3*,99.5*,-3.2,-9.3,-2.6,3.6
COc1ccc(NC(=S)Nc2cc(C)[nH]n2)cc1Cl,4253,-4.3,2.2,·,-15.5,2.6,·
Cn1nc(C(C)(C)C)cc1NC(=O)Nc1ccc(Cl)cc1,?,-4.7,-1.2,16.9,-110.2,2.5,-6.6
COc1ccc(C=NNC(=O)c2cc(C)n(-c3ccccc3)c2C)cc1OC,·,3.4,0.9,9.4,·,·,17.6
Cc1ccc(C(=O)N2CCCCC2)cc1S(=O)(=O)N1CCCCCC1,5688,-0.6,0.3,-0.1,-14.5,1.4,4.7
CC(Sc1nnc(-c2ccco2)n1C)C(=O)Nc1nccs1 (stereo not given),5772,0.8,1.8,3.4,1.2,-13.3,2.3
CC(C)(C)c1nc2scc(-c3ccc(Br)cc3)c2c(=O)o1,2423,-4.4,1.8,-4.6,-29.6,4.9,14.4
COCCCN(C(=O)Nc1cccc(Cl)c1)C(C)c1ccccn1 (stereo not given),6062,-9.3,3.5,11.1,-28.0,2.8,14.2
Cc1ccc(CSC2=NCCN2S(=O)(=O)c2ccc(F)cc2)cc1,4455,13.3,6.8,-3.6,-3.1,-0.7,9.2
O=C1c2ccccc2[C@@H]2C[C@@H](O)[C@H](Nc3ccccc3Cl)CCN12,3771,3.9,4.0,3.8,-4.0,·,-1.8
CC(=O)Nc1ccc(C(=O)CN2C(=O)CSC2=O)cc1,4029,8.8,1.5,5.6,-6.7,-6.0,3.4
CC(=O)N(CCC(Cc1ccccc1)c1ccc2c(c1)OCO2)Cc1ccccc1F (stereo not given),4743,21.1,-0.5,1.3,-0.8,0.4,3.3
Cc1ccc(N(C(=O)CNC(=O)c2ccco2)C(C(=O)NCC2CCCO2)c2ccccc2)c(C)c1 (stereo not given),5412,4.2,4.2,6.2,-5.7,5.3,1.6
Cc1noc(C)c1COc1ccc(C(=O)OCC(=O)NC23CC4CC(CC(C4)C2)C3)cc1,2427,-16.6,-9.5,7.1,-6.9,4.5,8.5
COC(=O)C1=CO[C@@H](O[C@@H]2O[C@H](CO)[C@@H](O)[C@H](O)[C@H]2O)C2C1C=C[C@@]2(O)CO (stereo not given in full),3133,11.7,13.5,2.8,75.9*,·,4.9
CCOC(=O)C1(C(F)(F)F)N=C(c2cccnc2)OC(N2CCOCC2)=N1 (stereo not given),4157,4.8,4.5,·,-5.7,-5.2,·
Cc1ccc(N2C(=O)CSC2c2cccnc2)c(Cl)c1 (stereo not given),3612,2.8,8.2,6.4,-2.6,-0.6,7.8
Cc1ccc(C=NNC(=O)C2CC(=O)N(c3ccccc3)C2)s1 (stereo not given),·,3.0,1.2,5.6,·,·,5.1
Cc1ccc(NC(=O)NC2CCCN2S(=O)(=O)c2ccc(Cl)cc2)cc1 (stereo not given),8095,11.3,6.8,-5.3,-10.5,0.7,-1.7
COc1ccc(CCNC(=O)c2nnn(CC(=O)Nc3c(C)cc(C)cc3C)c2N)cc1OC,5041,-0.9,2.4,-8.8,-31.4,0.0,-1.1
c1ccc(-c2cc(-c3nnco3)c3ccccc3n2)nc1,4251,-7.2,9.4,2.0,-25.7,-0.3,-7.8
O=S(=O)(c1ccc(F)cc1)N1CCN(c2ncnc3c2cnn3-c2ccccc2)CC1,2208,-0.5,2.3,10.7,-0.9,4.4,4.5
COc1ccc(CCN2C(=O)c3[nH]nc(-c4ccccc4O)c3C2c2cccc(Cl)c2)cc1 (stereo not given),2482,38.7,4.8,6.9,-20.3,3.6,9.4
CCC(CC)C(=O)N=C1SC2CS(=O)(=O)CC2N1CCc1ccc(OC)cc1 (stereo not given),8196,7.5,5.2,6.5,-23.3,-2.0,1.4
CN1C(=O)c2cccc(NC(=O)C3CCCCC3)c2C1=O,5261,2.4,7.0,5.2,-10.9,-3.4,11.5
CCCC(c1nnnn1CS(=O)(=O)c1ccc(C)cc1)N1CCC(C(N)=O)CC1 (stereo not given),3426,-3.2,-1.8,-1.8,-6.4,5.7,-4.3
COc1ccccc1NC(=O)C(C/C=C(\C)Cl)C(C)=O (stereo not given),7930,3.6,0.9,5.1,-15.0,0.9,2.6
COc1ccc2c(c1)c1ncn(CCN3CCCC3)c(=O)c1n2C,21856*,4.7,3.8,10.9,-39.8,4.9,5.9
COc1ccc(CN2C(=O)C(C)N(C(=O)c3c(F)cccc3F)c3ccccc32)cc1 (stereo not given),4199,11.6,8.4,1.1,-18.0,-0.1,17.5
Cc1cccc(NS(=O)(=O)c2cc(C(=O)N3CCc4ccccc4C3)ccc2Cl)c1C,12897,-23.2,12.0,5.1,-12.1,11.0,-2.6
NC(=O)C1CCN(Cc2nc(-c3cccs3)no2)CC1,4677,7.0,2.2,5.0,-5.4,-5.1,17.6
COC(=O)[C@@]1(C)[C@H]2C(=O)N(Cc3ccccc3)C(=O)[C@H]2[C@H]2CN=C(SCC3CC3)N21,3829,-0.5,4.5,6.1,36.6,·,4.3
Cc1nnc(SCc2ccccc2CSc2nnc(C)s2)s1,3899,6.5,1.7,6.3,60.1*,-2.8,11.9
COc1ccccc1C1/C(=C(/O)c2ccc(C)cc2)C(=O)C(=O)N1Cc1ccco1 (stereo not given),2473,-2.6,16.1,1.5,-18.9,-0.1,6.0
CCO[C@@H]1OC(C(=O)NCc2nc3ccccc3[nH]2)=C[C@H](c2coc3ccccc3c2=O)[C@H]1CCCO,3774,-5.5,-3.6,9.9,-6.2,5.3,-5.2
CN1CCN(C(=O)CN(Cc2ccccc2)S(C)(=O)=O)CC1,22469*,4.5,1.1,-4.9,-2.3,2.8,-0.2
O=C(C[C@H]1C[C@H](C(=O)N2CCOCC2)[C@@]2(CCC3CCCC3)c3[nH]c4cc(-c5ccco5)ccc4c3CCN2C1=O)NCC12CC3CC(CC(C3)C1)C2,4033,-23.7,-1.6,12.6,2.0,·,-1.2
CCOC(=O)C1CCN(C(=S)Nc2cccc(C)c2)CC1,13162,1.3,5.7,3.3,-16.2,-5.2,11.1
COCCCNC(=O)CNC(=O)c1nn(-c2ccc(OC)cc2OC)c(=O)c2ccccc12,3996,6.0,2.5,2.1,-9.0,-0.4,16.9

Quoted from the listing:
COCCCNC(=O)CNC(=O)c1nn(-c2ccc(OC)cc2OC)c(=O)c2ccccc12 in Autofluor counter → 3996
CCCC(c1nnnn1CS(=O)(=O)c1ccc(C)cc1)N1CCC(C(N)=O)CC1 (stereo not given) in PrP UTR inh → -6.4
COC(=O)[C@@]1(C)[C@H]2C(=O)N(Cc3ccccc3)C(=O)[C@H]2[C@H]2CN=C(SCC3CC3)N21 in ugtP null kill → -0.5

The list continues:
Compound,Autofluor counter,ugtP null kill,Sa RN4220 lethal,Mtb hypoxia inh growth,PrP UTR inh,BJeLR lethal,Mtb hypoxia inh
Cc1onc(-c2ccccc2Cl)c1C(=O)N1CCN(C/C=C/c2ccccc2)CC1,10380,6.1,4.3,7.0,-29.8,-3.9,16.2
CC1(C)CC(NC(=O)c2ccccc2)CC(C)(C)N1,3634,-1.0,-4.7,0.8,-2.9,-8.2,-1.7
C/C(=N\NC(=O)c1cnccn1)c1ccc([N+](=O)[O-])cc1,5251,·,·,·,-14.2,-8.0,·
O=C(Cn1cnc2ccccc21)c1ccc(Cl)cc1,·,8.4,5.2,-2.5,11.1,7.1,6.3

Bioassay records deposited in PubChem by several laboratories.

Rows are unselected. About 4% of those tested had a hit in this group.
